Tg IFNy HTS = inhibitors of Toxoplasma gondii growth with IFN-gamma; AID 1259416; Toxoplasma gondii growth in IFN-gamma-treated host cells; active compounds read low; reference of the scale not given here; activity change, negative = inhibition, %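 (about 20 µM by stock and volumes)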; actives 3.8% (n = 69,000);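 active = below -70%; inconclusive = fit judged invalid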;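 also: host cells are HeLa cells infected with Toxoplasma gondii; parasite growth read as luciferase light; one replicate is shown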
The depositor's hits bear a star; i = inactive; ? = inconclusive; & = joins results of further samples. This is a subset; the hit share may differ from the screen's.

structure,Tg IFNy HTS
CCn1ncnc1CN(C)Cc1cccc2cnccc12,-21
CCn1ncnc1-c1c(-c2ccccc2)ncn1CCc1ncccc1C,-36
O=C(NCCc1csc(-c2cccc(F)c2)n1)c1ccccc1Cl,11
C#CCNC(=O)CSCc1ccccc1Cl,75
CCOc1ccc(C2c3[nH]c4ccccc4c3CCN2C(=O)c2cccc(F)c2)cc1 (stereo not given),-113*
COc1ccc(C[C@H]2CCn3cc(nn3)COC[C@@H](C)NC2=O)cc1,-39
COCC(=O)Nc1ccc2c(c1)C(=O)N(C)[C@H]1CC[C@H](CC(=O)N3CCc4ccccc4C3)O[C@@H]1CO2,-28
CCn1c(=O)c(C(=O)Nc2ncccn2)c(O)c2ccccc21,69
Cc1ccc(CCC(=O)N(C)Cc2cnn(C(C)C)c2)cc1C,-5
Cc1nn(-c2ccccc2)nc1CNS(=O)(=O)c1ccc2c(c1)N(C)CCO2,4
O=C(c1cc2cccnc2n(Cc2ccccc2)c1=O)N(Cc1ccccc1)Cc1ccccc1,-52
O[C@@H]1CN(c2ncnc3sccc23)CC[C@H]1c1ccc2c(c1)OCO2,-31
O=S(=O)(c1ccc2c(c1)OCCO2)N1CCC(c2nc3ccccc3[nH]2)CC1,-40
NCc1ccc(-c2ccccc2CO)cc1,10
Cn1nc(C(C)(C)C)cc1C(=O)N[C@@H](Cc1cccc(Cl)c1)C(=O)NCC#N,17
CC(C)N1CCc2c(c(COc3cccnc3)nn2CC2CC2)C1,-1
Cc1ccc(-c2nc(C)c(CCNC(=O)C(C)(C)C)s2)cc1,i
O=C(CCC1Nc2c3ccccc3nc(=S)n2C1=O)N1CCC(O)(c2cccc(C(F)(F)F)c2)CC1 (stereo not given),-8
CCOc1ccc(-c2c(-c3ccccc3)ncn2Cc2cccnc2)cn1,-11
CC1(CN)Cc2ccccc2C1,18
COc1ccc(-c2nc3c(s2)CN(S(=O)(=O)c2ccccc2C)CC3)cc1OC,-94*
CNC(=O)C[C@H]1CC[C@@H]2[C@@H](COc3ccc(NC(=O)c4ccccc4F)cc3C(=O)N2C)O1,20
CCS(=O)(=O)N1CCCn2nnc(COCC3CC3)c2C1,-1
Cc1csc2c(N3CCc4nnc(C5CCCO5)n4CC3)ncnc12 (stereo not given),1
Cc1oc(C2CCN(C(=O)Cc3ccccc3Cl)CC2)nc1C(=O)N1CCCC1,-45
Cc1ccc2c(c1)CCCN2C(=O)c1cnn(-c2ccc(F)cc2)c1C,31
COc1cccc(-c2nc3c(s2)N(C(C)C)C(C(=O)N2CCC(O)CC2)C3)c1 (stereo not given),19
CCc1ccc(CNC(=O)Cn2ncc3c(N4CCOCC4)ncnc32)cc1,279
CN1C[C@@H](N)C[C@H]1C(=O)NCc1cccc(-n2cccn2)c1,-7
CC(=O)N1CC2CCC1C2Oc1cccnc1 (stereo not given),47

Arranged by SMILES length (largest number first): part of the list above
structure,Tg IFNy HTS
Cn1nc(C(C)(C)C)cc1C(=O)N[C@@H](Cc1cccc(Cl)c1)C(=O)NCC#N,17
Cc1oc(C2CCN(C(=O)Cc3ccccc3Cl)CC2)nc1C(=O)N1CCCC1,-45
COc1ccc(C[C@H]2CCn3cc(nn3)COC[C@@H](C)NC2=O)cc1,-39
CCc1ccc(CNC(=O)Cn2ncc3c(N4CCOCC4)ncnc32)cc1,279
CCOc1ccc(-c2c(-c3ccccc3)ncn2Cc2cccnc2)cn1,-11
Cc1csc2c(N3CCc4nnc(C5CCCO5)n4CC3)ncnc12 (stereo not given),1
CC(=O)N1CC2CCC1C2Oc1cccnc1 (stereo not given),47

Shown field by field: 2 of the compounds above.
Structure: CC(C)N1CCc2c(c(COc3cccnc3)nn2CC2CC2)C1
  Tg IFNy HTS = -1

Structure: COc1cccc(-c2nc3c(s2)N(C(C)C)C(C(=O)N2CCC(O)CC2)C3)c1 (stereo not given)
  Tg IFNy HTS = 19

Other entries follow.
structure,Tg IFNy HTS
CN1CCOC(C)(C(=O)N2CCN(c3ccccc3)CC2)C1 (stereo not given),-2
CC1CCCN(Cc2cccc(C(=O)Nc3cc(C4CC4)nn3C)c2)C1 (stereo not given),1
COc1cc(C)c(C(=O)CSc2nnc(CC(=O)Nc3ccc(F)cc3)n2C)cc1C,28
Cc1nn(-c2ccc(F)cc2)c(C)c1Cn1ccnc1C(C)C,-7
CCS(=O)(=O)N1[C@H](C#N)[C@H](c2ccc(-c3cccc(F)c3)cc2)[C@@H]1CO,-10
CC(C)c1noc(C(C)NC2CCN(C(=O)c3ccccc3)CC2)n1 (stereo not given),10
O=C1CN(Cc2nc(-c3ccco3)no2)CCN1Cc1ccc2c(c1)OCO2,-22
Cc1ccc(S(=O)(=O)N(C)C[C@@H]2Oc3c(NS(C)(=O)=O)cccc3C(=O)N([C@@H](C)CO)C[C@@H]2C)cc1,61
COc1cccc(-c2nc3c(s2)CN(S(=O)(=O)c2ccc(C)c(C)c2)CC3)c1,-104*
O=C1NC(c2cccs2)Nc2ccccc21 (stereo not given),10
CC(=O)NCc1csc(C2CCCN(S(=O)(=O)c3ccc(F)c(F)c3)C2)n1 (stereo not given),84
O=C(NC(CN1CCCC1)c1ccccc1)c1cn[nH]n1 (stereo not given),-5
Cc1noc(C)c1NC(=O)N(C)C[C@H]1OCc2cnnn2CCCC(=O)N([C@H](C)CO)C[C@H]1C,168
CCc1csc(-c2ccc(N3CCN(C(=O)C4CCN(C(C)=O)CC4)CC3)nc2)n1,11
COc1cc(Cl)ccc1C(=O)N1CCC2(CCCO2)CC1,-6
O=C(C[C@@H]1C=C[C@H](NS(=O)(=O)c2ccc(F)cc2)[C@H](CO)O1)N1CCc2ccccc2C1,89
Cc1nc(C2COCCN2C(=O)c2c(C)noc2C)cs1 (stereo not given),-37
O=C(NCCc1csc(C2CCN(C(=O)c3ccccc3)CC2)n1)C1CC1,10
N[C@@H]1CC[C@@H](NC(=O)c2ncccc2O)C1,96
Cc1ccc(N2CCCC2=O)cc1S(=O)(=O)NCCNC(=O)c1ccccn1,4
CCc1ccc(NC(=O)N2CCC3(CC2)NC(=O)c2ccccc2N3C)cc1,-26
Cc1c(NCc2cccnc2)cccc1C(=O)NCCN1CCCC(O)C1 (stereo not given),37
CCc1ccc(CNc2nc(-c3ccc(OC)cc3)nc3ccccc23)cc1,-45
O=C(CN1C(=O)CCc2cc(S(=O)(=O)N3CCCC3)ccc21)Nc1nccs1,14
Cc1ccc(C(=O)NCCc2csc(-c3ccc(F)cc3)n2)cc1C,-51
CC(C)C(Cn1ccnc1)NCC(=O)Nc1ccc(Cl)cc1F (stereo not given),2
COc1cc2ccccc2c(=O)c2ccsc12,-54
CCNC(=O)c1cc(S(=O)(=O)Nc2cc(OC)c(Cl)cc2OC)cs1,32
C=CCN1CC2(CCN(C(=O)c3cnccn3)CC2)OCC1=O,-2
Cc1ccc(C(C)C)c(OC(C)(C)C(=O)N2CC[C@H](O)[C@@H](O)C2)c1,-3

As entered above:
Tg IFNy HTS result of `O=C(NCCc1csc(-c2cccc(F)c2)n1)c1ccccc1Cl` : 11
Tg IFNy HTS result of `O[C@@H]1CN(c2ncnc3sccc23)CC[C@H]1c1ccc2c(c1)OCO2` : -31

Carrying on:
structure,Tg IFNy HTS
Cc1nc(CNC(=O)C(C)Oc2ccccc2F)no1 (stereo not given),-5
COc1ccc(CN2CCCC(c3onc4c3CC(C)CC4)C2)c(O)c1 (stereo not given),-64
COc1cccc(NC2COC3(CCN(Cc4ccc(Cl)c(F)c4)CC3)C2)c1 (stereo not given),92
C[C@@H]1CN([C@H](C)CO)C(=O)c2ccccc2-c2ccccc2CO[C@@H]1CN(C)Cc1ccc2c(c1)OCCN2C,-44
Cc1ccc(N2C(=O)C3C4C=CC(C4)C3C2=O)cc1 (stereo not given),1
Cc1nc2c(c(NC3CC3)n1)CCN(C(=O)c1ccco1)CC2,67
Cc1ncsc1CCCn1cnnc1,-9
COc1ccc(S(=O)(=O)N(Cc2nc(-c3cccc(Cl)c3)oc2C)c2ccccc2OC)cc1,13
Cc1noc(C)c1S(=O)(=O)Nc1ccc2c(c1)C(=O)N([C@H](C)CO)C[C@H](C)[C@H](CN(C)Cc1ccc(C(=O)O)cc1)OCCCC[C@H](C)O2,-11
Cc1ccccc1-n1c(=O)n(CCc2ccccc2)c(=O)c2[nH]cnc21,?
CCn1cc(-c2c(-c3ccccc3)ncn2CCN(C)S(C)(=O)=O)cn1,-21
COc1cccc(CN2CCC3(COCc4cnc(-c5ccccc5)nc43)C2)c1 (stereo not given),-52
O=C(N1CCCCC1)N1CCc2c(nc(-c3ccccn3)[nH]c2=O)C1,-3
Cc1cccc(-c2nc(C)c(CCNC(=O)C(=O)Nc3ccc(C)c(C)c3)s2)c1,?
CC(C)N1CCC(c2nnc3ccc(C(=O)NCCc4cccs4)cn23)C1 (stereo not given),48
CC(C)NC(=O)Nc1ccc2c(c1)C(=O)N(C)[C@H]1CC[C@@H](CC(=O)NCc3ccc(F)cc3)O[C@@H]1CO2,-17
COCCC(=O)c1c2c(-c3ccccc3)ncnc2n2ccccc12,2
CS(=O)(=O)c1snnc1C1CCCN(C(=O)c2cc3c(s2)CCC3)C1 (stereo not given),3
CN(C)c1nc2c(c(=O)[nH]1)CCN(C(=O)[C@H]1CCCN1)C2,3
COc1ccccc1N=CC1=C(O)CC(c2ccccc2)CC1=O (stereo not given),-8
O=C(NCC1CC1)[C@H]1C[C@@H]2CN(S(=O)(=O)c3ccccc3)C[C@H]1O2,-1
Cc1ccsc1S(=O)(=O)N1CC[C@@H]2OCCN(C(C)C)[C@@H]2C1,2
CCc1cc(-c2cccc(NC(C)=O)c2)nc(N2CCOCC2)n1,-26
CCOC[C@]12COC[C@H]1CN(C(=O)COC1CCCC1)C2,-8
COc1ccc(Cl)c(CN2CCCC(CNC(C)=O)C2)c1F (stereo not given),15
Cc1nc(-c2ccccc2)ncc1C(=O)N1CCCC2(CC1)CNC(=O)O2 (stereo not given),171
CC(C)OC(=O)C1=CN(C(=O)c2ccc(F)c(F)c2)CC(C)(C)c2c1[nH]c1ccccc21,6
COc1ccc(C)cc1NC(=O)COc1nc(C)nc2ccccc12,4
CCCn1nc(C)c(-c2cncn2CCOc2cccc(C)c2C)c1C,28
COc1ccccc1N1CCN(S(=O)(=O)c2ccc3[nH]c(=O)ccc3c2)CC1,-19
CCC(=O)Nc1ccc2c(c1)C(=O)N(C)C[C@H](OC)[C@@H](C)CN(Cc1nccs1)[C@H](C)CO2,36
CCc1ncc2c(n1)CN(C(=O)c1ccc(N3CCCC3=O)cc1)C2,-9
Cn1c(CNC(=O)C2CCC2)nc2c1CN(C(=O)Cc1ccc(Cl)cc1)CC2,-49
Nc1cc(Cl)ccc1C1=NCCCN1,-13
c1ccc(OCC2CC3(CCN(Cc4ccco4)CC3)CO2)nc1 (stereo not given),-18
N#C[C@@H]1[C@H](c2ccccc2C2=CCCCC2)[C@H](CO)N1C(=O)CN1CCOCC1,18
COc1cccc(CN2CCN(C(=O)c3cc4nc(C)cc(C)n4n3)[C@@H](C)C2)c1,19
CC1CN(CCC(=O)NCC2(N3CCOCC3)CCCC2)Cc2cc(Cl)ccc2O1 (stereo not given),12
COc1ccc(F)c(F)c1-c1nccn1CC1CCN(C(C)C)CC1,2
COc1cccc(NC(=O)N2CCC3(CC2)Nc2cc(F)ccc2-n2cccc23)c1,i
CCNC(=O)C1(Cc2ccc(-c3ccccc3)cc2)CCCN(C(=O)c2nonc2N)C1 (stereo not given),-31
CCCN1CCN(C(=O)c2cccc3[nH]cc(CN4CCCC4)c23)CC1,-61
C=CCN(Cc1ccccc1Cl)C(=O)c1ccc(CN(C)C)o1,-46
O=C1COC2(CCN(Cc3ccsc3)CC2)CN1CC1CC1,-5
CN(C)C1CCCN(C(=O)c2cccc(Oc3ccccc3)c2)CC1 (stereo not given),2
COc1ccc2c(c1)NC1(CCN(C(=O)CC3CCCC3)CC1)c1cccn1-2,33
CN1C[C@H](C(=O)N[C@]2(C)O[C@@]3(O)[C@@H]4CCCN4C(=O)[C@H](Cc4ccccc4)N3C2=O)C[C@@H]2c3cccc4[nH]cc(c34)C[C@H]21,4&0
COC(=O)CN(C)Cc1cccc(C(=O)Nc2c(C)cnn2C)c1,4
O=C(CN1C(=O)C2C3CCC(C3)C2C1=O)NCc1ccco1 (stereo not given),-10
O=C(c1cc(COc2ccccc2)[nH]n1)N(Cc1ccsc1)C1CC1,-19
Cn1nnnc1SCC(=O)c1ccc2c(c1)OCCO2,2
CSc1nc(C)nc(Sc2ccccc2)c1C#N,-15
COCC(=O)N1CCC2(CC1)CN(Cc1cc(F)ccc1F)[C@H](CO)c1c2c2ccc(OC)cc2n1C,-15
O=C1C(Cc2ccccc2)N=C2c3ccccc3N=C(SCc3ccc(F)cc3)N12 (stereo not given),12
C=CCOCc1cncc2c1CCN(S(=O)(=O)c1cn(C)cn1)C2,-41
Cc1ccc(-c2nc(Cn3nnc(-c4nc(-c5cccc(C)c5)no4)c3C)c(C)o2)cc1,-15
Cc1ccc(F)cc1S(=O)(=O)N1CCC(c2nc(C(=O)N3CCCC3)c(C)o2)CC1,-82*
Cc1ccc(S(=O)(=O)NCCOC(=O)Nc2sc(=S)n(C)c2C)cc1,-35
CCC(=O)N1C[C@H](C)[C@H](OC)CN(C)C(=O)c2cc(NC(=O)Nc3ccc(Cl)cc3)ccc2OC[C@@H]1C,3
CC(C)Nc1nc2c(cc1C(=O)NCC1CC1)CCN(c1ccncn1)CC2,-11
Cc1ccc(NC(=O)C(=O)NCCc2csc(-c3ccc(F)cc3)n2)cc1C,65
N#C[C@@H]1[C@@H](c2ccccc2)[C@@H](CO)N1C(=O)c1ccccc1F,-1

Assay outcomes (PubChem)
